Screening results as filed in PubChem BioAssay.
Ba CapD inh – blocks the Bacillus anthracis CapD enzyme. purified CapD enzyme, fluorescence intensity read-out; stronger effect = lower value; some hits fall short of the stated cut. z-score (concentration not given with the values). actives 0.23% (n = 140,000). AID 492967;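 active means z-score under -4 in either of two replicates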;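 further: stock transfer was 100 nL into about 40 µL; score is relative to mean and spread of the plate; one replicate is shown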
AID504770 – growth inhibitors of E. coli YBA685 in a screen for V. cholerae RctB (chromosome II replication) inhibitors; E. coli YBA685 rctB-dependent plasmid, OD600 growth, 3 h; stronger effect = lower value; z-score (test concentration not listed); actives 0.27% (n = 130,000); AID 504770;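 active means z-score under -2 on both plates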;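 further: wells of about 30 µL received 100 nL stock; score is relative to mean and SD of the test wells; the first replicate is given; strong numbers were not always called active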
* hit, by the source's call; x = not tested or not shown.

SMILES	Ba CapD inh	AID504770
N=C1S/C(=C\c2ccc(-c3cccc(Cl)c3)o2)C(=O)N1c1nccs1	-0.03	x
O=C(CCn1c(SCc2cc(=O)n3cc(Cl)ccc3n2)nc2ccccc2c1=O)NCCc1ccccc1	2	x
COc1cccc(C2=NOC(C(=O)Nc3cc(C)on3)C2)c1 (stereo not drawn)	-0.3	-2.1
CS(=O)(=NS(=O)(=O)c1ccc(OC(F)(F)F)cc1)c1ccc(Cl)cc1 (stereo not drawn)	-0.24	1.6
O/N=C/c1ccc(-c2ccc(F)cc2F)o1	-0.42	-0.45
CCOC(=O)c1c(C)oc2c1c(C(c1ccccn1)N1CCN(C)CC1)c(O)c1ccccc12 (stereo not drawn)	-0.46	1.6
O=C(CSc1nc2ncccc2[nH]1)N1CCCC1	2.4	-1.1
Cc1cc(O)c2c(=O)c(-c3cscn3)c(C)oc2c1	0.085	0.85
O=C(Cc1sc(-c2ccccc2)nc1-c1ccccc1)Nc1ccccc1	-0.045	x
CC1CC(=O)c2cnc(Nc3ccccc3)nc2C1 (stereo not drawn)	0.89	0.95
CCOC(=O)c1cnc2cc(-c3ccc(C)cc3)nn2c1C	x	0.45
CC(=O)Nc1ccc(-n2cc(-c3ccccc3)[nH]c2=S)cc1	x	-0.45
CCc1cc(CC)c(NC(=O)C(C)(C)C)c(CC)c1	-1.2	-0.3
O=C(Nc1cc(-c2ccccc2)[nH]n1)C1COc2ccccc2O1 (stereo not drawn)	-0.41	-0.3
Nc1ccc(-c2ncc(-c3ccccc3)o2)cc1	79	-0.15
Cc1onc(-c2ccccc2)c1CNC(=O)Nc1ccccc1	0.39	-0.45
COC(=O)c1ccc(CSc2ncnc3c2cnn3-c2ccc(C)cc2C)o1	x	1.1
CC(CO)(CO)NC(=O)NC1CCCCC1	0.38	-0.3
O=C(OCc1ccccc1)N1CCN(C(=O)OCC2CCCCN2Cc2ccco2)CC1 (stereo not drawn)	-0.73	x
CCc1ccc(NC(=S)N(CCCN2CCCCC2)Cc2ccco2)cc1	0.75	-0.65

As entered above:
For AID504770, CC(CO)(CO)NC(=O)NC1CCCCC1 shows -0.3
For AID504770, O=C(CSc1nc2ncccc2[nH]1)N1CCCC1 shows -1.1
For AID504770, CC(=O)Nc1ccc(-n2cc(-c3ccccc3)[nH]c2=S)cc1 shows -0.45

(further entries)
SMILES	Ba CapD inh	AID504770
Cc1ccc(C2/C(=C(\O)c3ccc(F)cc3)C(=O)C(=O)N2CCCN2CCOCC2)cc1 (stereo not drawn)	-0.37	x
O=C(CSc1nc(-c2ccccc2)nc2c1CCCC2)N1CCCCC1	0.3	0.1
COc1ccc(C2CC(=O)C3=C(C2)Nc2ccccc2NC3c2cccc([N+](=O)[O-])c2)cc1OC (stereo not drawn)	-0.85	x
FC(F)(F)Oc1ccc(-c2nnc(-c3cccnc3)o2)cc1	9.9	-1.2
CC(C)(C)NC(=O)NCc1ccco1	-0.55	1
Cc1cc(SCc2ccccc2)nc2ccccc12	0.11	0.35
CCC(C)NC(=O)c1cc(-c2ccccn2)nc2ccccc12 (stereo not drawn)	7.4	-0.05
C/C(=C/C(=O)C(F)(F)F)N1CCN(c2ccccn2)CC1	x	-0.5
O=C(NCc1ccccc1Cl)C1CCN(C(=O)c2ccco2)CC1	x	-0.3
CCOC(=O)N1CCN(S(=O)(=O)c2ccc(C(=O)Nc3sc4c(c3-c3nc5ccccc5s3)CCCC4)cc2)CC1	-0.1	x
CC(NC(=O)C1CCN(c2ccc(C(F)(F)F)cn2)CC1)C(=O)Nc1ccc2ccccc2c1 (stereo not drawn)	5	x
CC1Cc2ccccc2N1C(=O)Cn1nc(-c2nccc3ccccc23)oc1=O (stereo not drawn)	x	0.1
N#CC1=C(N)N(c2ccccc2)C(=O)C1	x	-0.6
Cc1c(Br)c([N+](=O)[O-])nn1CC(=O)N1CCN(Cc2ccccc2)CC1	-0.44	x
CCOc1ccc(S(=O)(=O)Nc2ccc3c(c2)c2c(n3S(=O)(=O)c3ccc(OCC)cc3)CC(C)(C)CC2=O)cc1	-0.21	x
Cc1cc2ncn(C(=O)CCCOc3ccccc3)c2cc1C	55	-0.15
CCCNC(=O)CCc1nc(-c2ccccc2Cl)no1	0.48	0.55
O=C(O)c1cc2cccc(S(=O)(=O)N3CCCCCC3)c2cc1O	-0.99	-0.95
Cc1ccccc1Nc1nc(N)nc(CN2CCC(C)CC2)n1	x	-0.05
Cc1c(C)n(CCN(C)C)c2ccc(C(=O)OCCN(C)C)cc12	-0.55	1.4

Structures above that contain a Cl atom:
SMILES	Ba CapD inh	AID504770
N=C1S/C(=C\c2ccc(-c3cccc(Cl)c3)o2)C(=O)N1c1nccs1	-0.03	x
O=C(CCn1c(SCc2cc(=O)n3cc(Cl)ccc3n2)nc2ccccc2c1=O)NCCc1ccccc1	2	x
CS(=O)(=NS(=O)(=O)c1ccc(OC(F)(F)F)cc1)c1ccc(Cl)cc1 (stereo not drawn)	-0.24	1.6
O=C(NCc1ccccc1Cl)C1CCN(C(=O)c2ccco2)CC1	x	-0.3
CCCNC(=O)CCc1nc(-c2ccccc2Cl)no1	0.48	0.55

Additional entries:
SMILES	Ba CapD inh	AID504770
O=C1NC(=S)N(c2cccc(Cl)c2Cl)C(=O)/C1=C/c1ccc(N2CCOCC2)o1	-1.4	x
CC1C(=O)C(C)C(c2ccc(N(C)C)cc2)NC1c1ccc(N(C)C)cc1 (stereo not drawn)	6	0.2
Cc1ccc(Cc2cc(C)n[nH]c2=O)cc1	-1.1	-0.45
CCN1CCC2(CC1)OC(=O)C(C)=C2C(=O)Nc1ccc(F)cc1	-0.41	0.75
CCn1c(SCC(N)=O)nc2c(c1=O)C1(CCCCC1)Cc1ccccc1-2	1.1	0.5
CCc1ccc(N2C(=O)c3ccncc3C2=O)cc1	4.8	-1.7
Cc1noc(/C=C/N2CCOCC2)c1S(=O)(=O)N(C)CC(=O)NC1CCCCC1	-5.5*	0.7
CC(O)CN1C(=O)c2cccc3cccc(c23)C1=O (stereo not drawn)	76	x
COc1ccc(CN2C(=O)CNC2=S)cc1	-0.12	x
Cn1ccc(/C=C2/CCC/C(=C\c3ccn(C)n3)C2=O)n1	0.24	-2.1
CN(CCO)CC(O)Cn1c2ccc(Cl)cc2c2cc(Cl)ccc21 (stereo not drawn)	1.7	x
CC(OC(=O)c1ccccc1OC(F)F)C(=O)N1CCCc2ccccc21 (stereo not drawn)	x	1.5
CSc1ccc(/C=N/NC(=O)c2ccccc2NC(=O)c2cccs2)cc1	9.9	x
CC(C)(O)C#Cc1ccc(CO)cc1	0.26	-0.65
N#C/C(=C\Nc1cc(C(F)(F)F)cc(C(F)(F)F)c1)S(=O)(=O)Cc1ccc(Cl)cc1	0.24	-0.05
FC(F)(F)Oc1ccc(NC2=NCCC2)cc1	x	-0.3
COc1ccccc1C(=O)COC(=O)c1ccccc1O	x	1.1
Cn1cc(C(=O)O)c(-c2ccc3c(c2)OCCCO3)n1	x	0.85
O=C(Cc1cccs1)NCCc1cnc[nH]1	-0.035	-0.55
CCOC(=O)c1cc(=O)c2ccc(O)cc2o1	-1.8	x
CCOC(=O)c1ccc(Nc2nc(-c3cccnc3)nc3ccccc23)cc1	22	x
CN1NC(=O)CC1C(=O)Nc1sc2c(c1C#N)CCCC2 (stereo not drawn)	x	0.1
CC(=O)NS(=O)(=O)c1ccc(N=Cc2ccco2)cc1	-0.11	1.8
CC(=O)Nc1ccc(C(=O)N/N=C/c2ccc(C)o2)cc1	-2.2	1.4
O=C(NC(Cc1ccccc1)C(=O)OCc1ccccc1)OCCCCc1ccc([N+](=O)[O-])cc1 (stereo not drawn)	-0.43	x
COc1cc(/C=C2\Oc3ccccc3C2O)cc(Cl)c1OC (stereo not drawn)	0.54	-1
COc1ccc(C(=O)NNC(=O)OCCCl)cc1	0.25	x
COc1ccc(NC(=O)c2sc3ncnc(N4CCN(c5ccccn5)CC4)c3c2C)c(OC)c1	-0.96	x
O=c1cc(O)n(C2CCCC2)c(=S)[nH]1	x	0.55
CC(OC(=O)c1cccc(C(F)(F)F)c1)C(N)=O (stereo not drawn)	x	-0.65
CCOc1cccc(=O)c2c(C)n(CC(=O)c3ccccc3)c(C)c12	-1.9	1.1
CCOc1ccc(C2C(N3C(=O)c4c(Cl)c(Cl)c(Cl)c(Cl)c4C3=O)C(=O)N2c2ccc(Cl)cc2C)cc1 (stereo not drawn)	-0.16	x
CCOC(=O)c1ccc2nc(C34CC5CC(CC(C5)C3)C4)ccc2c1	3.3	0.55
Nc1nc(-c2ccco2)nn1C(=O)c1ccc(Cl)cc1Cl	x	-0.2
COC(=O)c1nn(-c2ccc(-c3ccccc3)cc2)cc1O	x	0.65
O=C1C2C3C=CC(C3)C2C(=O)N1CCN1CCN(S(=O)(=O)c2ccc(Br)cc2)CC1 (stereo not drawn)	x	-0.3
Cc1ccc(NC(=O)CSc2nc3cc(C(=O)NCc4ccco4)ccc3c(=O)n2Cc2ccco2)cc1	0.97	x
O=P1(N2CCCCCC2)CC=CC1	x	-0.05
Cc1cccc(C)c1NC(=O)CNCC(=O)Nc1c(C)cccc1C	x	1.4
Cc1cc(C)nc(NC(=O)COc2ccc(Br)cc2)n1	x	-0.3

A stretch from the list above, for reference:
SMILES	Ba CapD inh	AID504770
Cc1cccc(C)c1NC(=O)CNCC(=O)Nc1c(C)cccc1C	x	1.4
Cc1cc(C)nc(NC(=O)COc2ccc(Br)cc2)n1	x	-0.3

Rewritten with two lines to a compound: 4 of the compounds above
Order of results – Ba CapD inh, AID504770
> CC(=O)Nc1ccc(C(=O)N/N=C/c2ccc(C)o2)cc1
    -2.2, 1.4
> O=C(O)c1cc2cccc(S(=O)(=O)N3CCCCCC3)c2cc1O
    -0.99, -0.95
> O=C(CSc1nc2ncccc2[nH]1)N1CCCC1
    2.4, -1.1
> COc1cc(/C=C2\Oc3ccccc3C2O)cc(Cl)c1OC (stereo not drawn)
    0.54, -1

Other entries
SMILES	Ba CapD inh	AID504770
CN(C)S(=O)(=O)c1ccc2nnn(OCC(=O)NCCC3=CCCCC3)c2c1	x	-0.4
Cc1cc(-n2c(C)cc(C(=O)COC(=O)C3CCCC3)c2C)no1	x	1.8
O=[N+]([O-])c1ccc(Cl)c(-c2ccc(/C=N/c3c(-c4ccco4)nc4ccccn34)o2)c1	-0.005	x
Cc1ccc2nc(COC(=O)CSc3ncnc4c3oc3ccccc34)cc(=O)n2c1	x	-0.3
FC(F)(F)c1cc(/C=C/c2noc(CN3CCCCCC3)n2)cc(C(F)(F)F)c1	0.4	0.1
CC1CCN(C(=O)C2CCN(CC3CCCCC3)CC2)CC1	0.18	0
CC(C)S(=O)(=O)/C(C#N)=C/c1cnc[nH]1	-1.8	-1.9
CSc1nc(C)nc(N/C=C(\C#N)S(=O)(=O)c2ccc(C)cc2)n1	-0.71	-0.55
CC(C)(C)c1ccc(C(=O)NNC(=O)OCC#Cc2ccccc2)cc1	-0.41	x
COc1cc(C2Oc3c(OC)cccc3C3CC(c4ccco4)=NN32)cc(OC)c1OC (stereo not drawn)	-1.2	x
COC(=O)c1c(OC)ccc(-n2cccc2)c1OC	-0.92	-1.1
Cc1ccc(Cn2c(NC(=O)c3cccs3)nc3ccccc32)cc1	0.22	0.2
Cc1cc(C)nc(N(C#N)CC(=O)c2ccccc2)n1	x	0.85
CCc1ccc(NC(=O)CN(C)S(=O)(=O)c2ccc3nc(-c4ccccc4)[nH]c3c2)cc1	2.3	-0.5
CC(=O)Oc1cccc(C(=O)NC2CCCCC2)c1	-0.45	-1.1
CC(=O)Nc1cc(C(=O)N2CCN(C)CC2)ccc1S(=O)(=O)c1ccc(C)cc1	-0.21	-2.5
CC(C)Cc1cc(-c2ccccc2)c(C#N)c(N)n1	x	-0.35
c1coc(CNCc2cccc3ccccc23)c1	-0.2	0.7
Cc1ccc(C(C)C)c(OCC(O)CN(C)Cc2ccccc2)c1 (stereo not drawn)	-0.64	-0.15
Brc1ccc2c(c1)C1CC(c3ccccc3)=NN1C(c1ccc(OCc3ccccc3)cc1)O2 (stereo not drawn)	-0.26	x
CCc1ccccc1-n1nnc(C(=O)NCc2ccc3c(c2)OCO3)c1N	x	-0.5
CCOc1ccc(/C=N/OCC(=O)Nc2cc(C)on2)cc1	x	2
O=C(CN1C(=O)c2ccccc2S1(=O)=O)N1CCCCC1	0.01	x
COc1ccc(C)cc1S(=O)(=O)NCc1ccccc1	x	-0.05
CNC(=O)Cc1cc(=O)[nH]c(=O)[nH]1	x	-0.5
O=C(CN(Cc1ccco1)S(=O)(=O)/C=C/c1ccccc1)Nc1ccc(N2CCOCC2)cc1	x	-0.4
CCOc1ccccc1-n1c(=S)sc2c1nc(SCC(=O)N(CC)CC)n1c3ccccc3nc21	-0.29	x
N#Cc1ccc(Cl)cc1NC(=O)CSc1ccccn1	-0.3	1.7
COc1ccc(CNC(=O)/C=C/c2cc3c(cc2Br)OCO3)cc1	2.3	x
CC(C)(C)c1ccc(S(=O)(=O)Nc2cc3c4c(oc3c3ccccc23)CCCC4)cc1	0.025	x
CCN(CC)C(=O)c1cccc(C(=O)N(CC)CC)c1	-0.3	-0.6
CCn1cc(/C=C(/C#N)c2ccccc2Cl)c2ccccc21	-0.84	1.5
CSc1ncnc2c1nnn2Cc1ccccc1	-0.77	0.8
CCC/C=C/COC(=O)N1CCC(C(O)(c2ccccc2)c2ccccc2)CC1	-0.11	x
N#CCc1ccc(C(=O)c2cccs2)s1	-1.6	-0.6
Cc1cccc(OCCCC(=O)O)c1	-0.31	1.1
CCCc1c(C(=O)Nc2ccc3c(c2)OCCO3)cnn1-c1ccccc1	-1	0.55
CCOC(=O)c1sc2nc(CC(=O)OC)nc(NCc3ccco3)c2c1C	40	x
O=C(N/C=C/c1ccco1)Nc1cc(C(F)(F)F)cc(C(F)(F)F)c1	-0.56	x
O=C(Nc1ccc2c(c1)OCCO2)c1cc(-c2ccc(Cl)cc2)oc1C(F)(F)F	0.05	x
